# Ecoli rRNA inh – inhibits bacterial ribosomal RNA function over humanized ribosomes; hit rate 1.6% among 350,000; GFP signal change (wild-type ribosome), % (concentration not given with the values); E. coli WT GFP vs humanized-ribosome RFP mutants, fluorescence, 24 h; hits give low values; DMSO median 0, no signal -100;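 active = significant combined selectivity score with lowered wild-type GFP, culture density cut under 30%, mutant RFP and density less affected; inactive = any of these conditions unmet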; also: one replicate is shown; some compounds called inactive have numbers as strong as hits
# FGF22 binding – shifts melting point of recombinant human FGF22 | Q9HCT0 | recombinant FGF22 thermal shift, SYPRO orange fluorescence; percent of sucrose octasulfate shift, DMSO zero | calls only at 9.99 µM | hit rate 1.5% among 340,000 | AID 651658;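 active = melting point raised past a set limit in the mean and every replicate; three in four hits are not shown here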
# Target sequence (Q9HCT0 whole entry, looked up): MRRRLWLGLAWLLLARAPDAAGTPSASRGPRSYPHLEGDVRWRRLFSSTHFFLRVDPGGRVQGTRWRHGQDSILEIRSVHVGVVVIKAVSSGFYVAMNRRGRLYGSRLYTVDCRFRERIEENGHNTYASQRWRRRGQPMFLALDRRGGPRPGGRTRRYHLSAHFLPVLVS
# AF4-AF9 inh – MLL-AF4/AF9 protein interaction inhibition; AlphaScreen, biotin-AF4 peptide binding to FLAG-AF9; inhibition, % at 10 µM; hit rate 0.47% among 350,000; AID 651704;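 active = every replicate reaching a set inhibition limit, whatever the replicate mean, cut at about 25% in these data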;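 also: 0% = plate neutral control median and 100% = total signal loss; the record names both 10 and 1 µM as test concentration; the first replicate is given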
# Target sequence (P42568 whole entry, looked up): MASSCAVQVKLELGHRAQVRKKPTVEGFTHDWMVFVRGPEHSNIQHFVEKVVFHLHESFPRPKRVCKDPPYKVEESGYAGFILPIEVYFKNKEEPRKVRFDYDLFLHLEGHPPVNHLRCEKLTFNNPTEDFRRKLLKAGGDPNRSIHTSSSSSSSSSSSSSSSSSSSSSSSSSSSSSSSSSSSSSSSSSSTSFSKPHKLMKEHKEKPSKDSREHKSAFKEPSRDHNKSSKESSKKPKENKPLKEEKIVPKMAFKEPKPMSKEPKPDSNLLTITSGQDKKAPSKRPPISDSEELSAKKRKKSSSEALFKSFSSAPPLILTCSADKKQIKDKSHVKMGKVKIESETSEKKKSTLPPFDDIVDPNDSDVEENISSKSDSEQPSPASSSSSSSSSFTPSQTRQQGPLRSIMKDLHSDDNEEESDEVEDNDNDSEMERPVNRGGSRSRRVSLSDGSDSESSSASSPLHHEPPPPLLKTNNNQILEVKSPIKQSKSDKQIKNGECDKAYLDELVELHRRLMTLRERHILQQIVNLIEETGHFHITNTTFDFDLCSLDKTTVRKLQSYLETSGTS
# Ecoli rRNA inh OD600 – recorded beside Ecoli rRNA inh, whose call it bears; OD600 change, %; measured here: OD600 growth;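 optical density of the mix in the first replicate; 0 = DMSO median and -100 = no signal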
# Ecoli rRNA inh RFP – further read-out of Ecoli rRNA inh, marked with its call; RFP signal change, %; measured here: RFP humanized mutant strains;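 first replicate; 0 = DMSO median and -100 = no signal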
# An asterisk follows results filed as active; i = inactive; & = joins results of further samples. These rows are one share of the data. The share of hits here may be higher or lower than overall.
AF4-AF9 inh	FGF22 binding	Ecoli rRNA inh RFP	Ecoli rRNA inh	Ecoli rRNA inh OD600	compound
-2.3	i	-0.9	3.4	9.4	COCC#Cc1ccc2c(c1)O[C@H](CN(C)S(C)(=O)=O)[C@H](C)CN([C@@H](C)CO)S2(=O)=O
-1.4	i	-3.7	4.6	1.2	CCCNC(=O)N1[C@H](CO)[C@H](c2ccccc2)C12CN(C(=O)CC)C2
-1.8	i	-3.4	0.0	2.3	O=C(N[C@@H]1CC[C@@H](CC(=O)N2CCCCC2)O[C@H]1CO)c1cccc(F)c1
10.9	i	-0.2	5.4	-5.6	Cc1cccc(-c2ccc([C@H]3[C@H]4CN(C(=O)c5ccncc5)CCCCN4[C@H]3CO)cc2)c1
-7.9	i	-1.5	3.7	7.1	O=C(O)C[C@H]1C[C@@H]2c3cc(NC(=O)Nc4ccccc4)ccc3O[C@@H]2[C@@H](CO)O1
-0.7	i	-3.6	1.5	-0.1	Cc1ccc(S(=O)(=O)Nc2ccc3c(c2)C(=O)N([C@@H](C)CO)C[C@H](C)[C@H](CN(C)Cc2ccc(C(F)(F)F)cc2)OCCCC[C@H](C)O3)cc1
-3.0	i	-1.2	-0.3	4.6	C[C@H](CO)N1C[C@H](C)[C@H](CN(C)Cc2ccc(C(=O)O)cc2)Oc2ccc(NC(=O)CCN3CCOCC3)cc2C1=O
-2.7	i	-1.0	6.7	7.8	CCCC#Cc1cnc2c(c1)C(=O)N([C@@H](C)CO)C[C@@H](C)[C@H](CN(C)C(=O)NCCC)O2
-3.3	i	1.5	-4.6	0.8	C[C@@H]1CCCCO[C@H](CN(C)C(=O)c2ccncc2)[C@H](C)CN([C@@H](C)CO)C(=O)c2cc(NS(=O)(=O)c3ccccc3)ccc2O1
13.3	i	-3.1	-3.9	-22.8	C[C@@H]1CN([C@@H](C)CO)C(=O)c2cccc(NC(=O)Nc3ccc4c(c3)OCO4)c2O[C@@H]1CN(C)C(=O)NC1CCCCC1
-4.3	i	-6.9	-0.2	10.7	Cc1cccc(NC(=O)CSc2nc(C)nc3c2c(=O)n(C)c(=O)n3C)c1
-2.7	i	-0.7	2.6	6.7	Cc1cc(C)cc(Nc2cc(C)nc3ncnn23)c1
0.2	i	3.2	4.1	-4.6	C[C@@H]1CN([C@H](C)CO)C(=O)c2cc(NC(=O)Nc3ccccc3)ccc2O[C@@H](C)CCCCO[C@H]1CN(C)Cc1ccc(Cl)c(Cl)c1
-2.2	i	-2.4	-2.3	-2.3	COc1ccc(NC(=O)N(C)C[C@H]2Oc3ccc(NC(=O)CCN4CCOCC4)cc3CC(=O)N([C@@H](C)CO)C[C@@H]2C)cc1
-3.3	i	1.5	0.4	-0.1	CCCN(C)C[C@@H]1OCCCC[C@H](C)Oc2ccc(NC(=O)Nc3ccc(F)cc3)cc2C(=O)N([C@@H](C)CO)C[C@@H]1C
1.4	i	-3.3	0.5	2.0	Cc1noc(C)c1S(=O)(=O)Nc1ccc2c(c1)CC(=O)N([C@H](C)CO)C[C@H](C)[C@H](CN(C)S(=O)(=O)c1cn(C)cn1)O2
1.3&-0.5&0.3	i	-0.7&1.3	2.9&22.1	2.0&7.4	COc1ccc(S(=O)(=O)N(C)C[C@@H]2OCc3cn(nn3)CCCC(=O)N([C@H](C)CO)C[C@H]2C)cc1
0.0	i	0.2	-10.6	-9.8	O=C(C[C@H]1C(=O)N(Cc2ccccc2)C[C@@H]1Cc1ccccc1)Nc1ccc(Br)cc1
5.7	i	3.2	16.6	11.1	CC1(C(=O)NS(=O)(=O)c2ccc(C#N)cc2)CCN1C(=O)Cc1ccccc1Cl (stereo not given)
-0.9	i	-4.6	-1.7	-7.2	C[C@H](CO)N1C[C@H](C)[C@@H](CN(C)Cc2cccnc2)Oc2ncc(C#CC3(O)CCCC3)cc2C1=O
0.7	i	0.0	4.5	-13.1	CCS(=O)(=O)N1CCCCN2[C@@H](CO)[C@@H](c3ccc(-c4ccccc4)cc3)[C@@H]2C1
-3.7	i	24.9	-1.0	-29.1	CO[C@@H](CN(C)S(=O)(=O)c1ccc(Cl)cc1)[C@H](C)CN([C@H](C)CO)S(=O)(=O)c1cccc(Cl)c1
-3.5	i	-1.3	2.6	3.3	C[C@@H]1CN([C@H](C)CO)C(=O)Cc2cc(NS(=O)(=O)c3ccccc3)ccc2O[C@H]1CN(C)C(=O)Nc1ccccc1
-1.4	i	1.2	-4.2	-6.0	COc1ccc(S(=O)(=O)Nc2ccc3c(c2)CC(=O)N([C@@H](C)CO)C[C@@H](C)[C@@H](CN(C)Cc2ccc(C(F)(F)F)cc2)O3)cc1
-1.7	i	5.6	-2.9	2.0	O=C(Nc1cccc(Cl)c1)N[C@H]1CC[C@H](CCn2cc(Cc3ccccc3)nn2)O[C@H]1CO
0.0	i	4.4	-3.1	-0.1	COc1cccc(C(=O)Nc2ccc3c(c2)OC[C@@H](C)N(C(=O)C2CCC2)C[C@@H](C)[C@H](OC)CN(C)C3=O)c1
0.8	i	1.2	-6.3	-7.3	CC(=O)c1c(C)[nH]c(C(=O)CN2C(=O)NC3(CCCCC3)C2=O)c1C
3.4	i	-0.3	-0.8	-0.3	C[C@@H]1CN([C@H](C)CO)C(=O)c2cccc(NC(=O)NC3CCCCC3)c2O[C@H]1CN(C)Cc1ccc(Cl)c(Cl)c1
-0.4	i	-2.9	-6.3	-2.6	CN(C)c1ccc(-c2ccnc3c2CC(C)(C(=O)NCc2cccc(Cl)c2)O3)cc1 (stereo not given)
-1.4	i	3.2	3.7	21.7	CCCNC(=O)N1[C@@H](C#N)[C@H](c2ccccc2)[C@@H]1CO
4.6	i	1.3	4.0	10.7	Cc1ccc(C(=O)NNC(=O)c2ccccc2OCc2c(C)noc2C)cc1
-2.2	i	2.4	-0.1	10.4	C[C@@H]1CN([C@H](C)CO)C(=O)c2cc(-c3ccc(F)cc3)cnc2O[C@H]1CN(C)C(=O)NC1CCCC1
0.0	i	-0.4	7.2	10.1	Cc1c(-c2ccccc2Br)nc2ccccc2c1C(=O)O
-3.9	i	2.7	4.3	-2.9	CSc1ccc(Oc2cccc3c2S(=O)(=O)N(C2CC2)C[C@@H](COCc2ccccc2)O3)cc1C
-3.2	i	-1.1	0.7	5.7	C[C@H]1CN([C@@H](C)CO)C(=O)Cc2cc(NS(C)(=O)=O)ccc2O[C@H]1CN(C)C(=O)Nc1ccccc1
11.6	i	2.9	5.4	9.7	O=C(C[C@H]1C[C@H]2c3cc(NC(=O)Nc4ccccc4)ccc3O[C@H]2[C@@H](CO)O1)NCCN1CCCCC1
10.5	i	17.7	-24.8	-63.3	OC[C@H]1[C@@H](c2ccc(C#Cc3cccnc3)cc2)[C@@H]2CN(Cc3ccccc3F)CCCCN12
-1.4	i	-0.4	-3.3	0.3	C[C@@H]1CN([C@@H](C)CO)S(=O)(=O)c2ccc(-c3ccc(F)cc3)cc2O[C@@H]1CN(C)C(=O)C1CCOCC1
0.3	i	1.0	2.8	-5.4	Cc1ccc(S(=O)(=O)Nc2ccc3c(c2)C(=O)N([C@H](C)CO)C[C@H](C)[C@@H](CN(C)CC2CCCCC2)OCCCC[C@@H](C)O3)cc1
3.0	i	0.1	-6.6	-17.6	CCC(=O)N1[C@@H]2c3ccc(C4=CCCC4)c(=O)n3C[C@H]1[C@H](CO)[C@H]2C(=O)N[C@@H](C)c1ccccc1
-8.1	i	-0.6	-2.6	0.6	CC1CC(=O)Nc2ccccc2N1C(=O)Cn1cnc2ccc(Br)cc2c1=O (stereo not given)
-2.2	i	1.1	2.1	1.9	CO[C@H]1CC[C@@H]2CCN(C)C(=O)[C@@H](C)[C@H](OC)CN(C)C(=O)c3cc(C#N)ccc3OC[C@@H]1O2
-4.7	i	0.3	-6.7	-5.7	C[C@H]1CN([C@@H](C)CO)C(=O)c2cc(NC(=O)C3CC3)ccc2O[C@H]1CN(C)C(=O)Nc1ccc(C(F)(F)F)cc1
-0.5	i	-1.3	-3.1	7.0	COC(=O)C[C@@H]1CC[C@H]2[C@H](COc3ccc(NC(=O)c4cnccn4)cc3C(=O)N2C)O1
-0.5	i	-1.4	0.7	-9.2	CC(C)C#Cc1ccc([C@@H]2[C@@H](C#N)N(C(=O)c3ccccn3)[C@@H]2CO)cc1
-0.4	i	0.7	0.4	3.7	C[C@@H](NC(=O)C[C@H]1C[C@H]2c3cc(NC(=O)CN(C)C)ccc3O[C@H]2[C@H](CO)O1)c1ccccc1
-1.3	i	-3.0	3.5	3.2	CO[C@@H]1CN(C)C(=O)c2cc(NC(=O)C3CCOCC3)ccc2OC[C@H](C)NC[C@H]1C
0.6	i	-2.4	3.2	1.5	C[C@H](O)C#Cc1cnc2c(c1)C(=O)N([C@H](C)CO)C[C@H](C)[C@H](CN(C)C(=O)Nc1ccc(C(F)(F)F)cc1)O2
-0.4	i	-1.4	-1.5	-1.9	COC(=O)C[C@@H]1CC[C@H]2[C@@H](COc3ccc(NC(=O)c4ccc(C(F)(F)F)cc4)cc3C(=O)N2C)O1
3.1	i	-3.8	1.1	3.6	CN1CCCCN2[C@H](CO)[C@@H](c3ccc(-c4cccnc4)cc3)[C@@H]2C1
4.8	i	-0.3	-0.4	-21.1	C[C@@H]1CN([C@@H](C)CO)C(=O)c2cc(NS(=O)(=O)c3cccs3)ccc2O[C@@H](C)CCCCO[C@@H]1CN(C)Cc1ccccc1
-1.1	i	-0.4	0.5	-1.1	COc1ccc(S(=O)(=O)N[C@H]2C=C[C@@H](CC(=O)N3CCN(c4ccccc4)CC3)O[C@H]2CO)cc1
3.6	i	-1.4	-13.8	-10.0	CO[C@H]1CN(C)C(=O)c2ccc(NC(C)=O)cc2OC[C@H](C)N(CCc2ccccc2)C[C@@H]1C
0.6	i	1.1	10.2	5.7	c1ccc(COc2ncnc3c2ncn3CCCNCC2CCCO2)cc1 (stereo not given)
-4.5	i	-2.0	-1.5	6.3	CCC(C)C(CO)NCCCn1cnc2c(OCc3ccccc3)ncnc21 (stereo not given)
-1.2	i	-3.9	0.5	5.0	CCS(=O)(=O)N1CC2(C1)[C@H](c1ccccc1)[C@@H](CO)N2CCC(F)(F)F

# (list continues)
AF4-AF9 inh	FGF22 binding	Ecoli rRNA inh RFP	Ecoli rRNA inh	Ecoli rRNA inh OD600	compound
3.9	i	-4.3	-34.2	-46.5	O=C(Nc1cccc(Cl)c1)N1C[C@@H]2[C@H](c3ccccc31)[C@@H](CO)N2Cc1cccnc1
-0.8	i	-0.7	-0.2	-1.3	O=C(C[C@@H]1C=C[C@@H](NC(=O)Cc2ccccn2)[C@H](CO)O1)NCCc1ccccc1
1.1	i	-2.6	2.3	3.1	C[C@@H]1CCCCO[C@@H](CN(C)S(=O)(=O)c2ccccc2)[C@@H](C)CN([C@@H](C)CO)C(=O)c2cc(NC(=O)Nc3ccc(C(F)(F)F)cc3)ccc2O1
1.5	i	1.7	1.9	-7.5	CC(C)NC(=O)Nc1ccc2c(c1)C(=O)N([C@@H](C)CO)C[C@@H](C)[C@@H](CN(C)C(=O)Nc1cccc3ccccc13)OCCCC[C@@H](C)O2
-1.9	i	-5.7	0.0	-3.2	Cc1cc(C(F)(F)F)nc(NNc2nc(C)cc(C(F)(F)F)n2)n1
-1.3	i	-1.6	-6.9	-8.8	CN1C(=O)c2cc(NC(=O)C3CC3)ccc2OC[C@@H]2O[C@@H](CC(=O)NCC3CCCCC3)CC[C@@H]21
-3.2	i	-4.2	10.4	7.2	CC1(C(=O)Nc2cccc(OC(F)(F)F)c2)Cc2c(-c3cccc(C(F)(F)F)c3)ccnc2O1 (stereo not given)
-2.3	i	-1.0	-1.1	-0.4	Cc1ccc(S(=O)(=O)N(C)C[C@H]2Oc3ccc(NC(=O)Cc4ccccc4)cc3CC(=O)N([C@@H](C)CO)C[C@@H]2C)cc1

# Structures listed so far that have a Cl atom:
AF4-AF9 inh	FGF22 binding	Ecoli rRNA inh RFP	Ecoli rRNA inh	Ecoli rRNA inh OD600	compound
0.2	i	3.2	4.1	-4.6	C[C@@H]1CN([C@H](C)CO)C(=O)c2cc(NC(=O)Nc3ccccc3)ccc2O[C@@H](C)CCCCO[C@H]1CN(C)Cc1ccc(Cl)c(Cl)c1
5.7	i	3.2	16.6	11.1	CC1(C(=O)NS(=O)(=O)c2ccc(C#N)cc2)CCN1C(=O)Cc1ccccc1Cl (stereo not given)
-3.7	i	24.9	-1.0	-29.1	CO[C@@H](CN(C)S(=O)(=O)c1ccc(Cl)cc1)[C@H](C)CN([C@H](C)CO)S(=O)(=O)c1cccc(Cl)c1
-1.7	i	5.6	-2.9	2.0	O=C(Nc1cccc(Cl)c1)N[C@H]1CC[C@H](CCn2cc(Cc3ccccc3)nn2)O[C@H]1CO
3.4	i	-0.3	-0.8	-0.3	C[C@@H]1CN([C@H](C)CO)C(=O)c2cccc(NC(=O)NC3CCCCC3)c2O[C@H]1CN(C)Cc1ccc(Cl)c(Cl)c1
-0.4	i	-2.9	-6.3	-2.6	CN(C)c1ccc(-c2ccnc3c2CC(C)(C(=O)NCc2cccc(Cl)c2)O3)cc1 (stereo not given)
3.9	i	-4.3	-34.2	-46.5	O=C(Nc1cccc(Cl)c1)N1C[C@@H]2[C@H](c3ccccc31)[C@@H](CO)N2Cc1cccnc1
